High-throughput results (PubChem BioAssay)
Calb FLC: C. albicans growth modulation with fluconazole. C. albicans CaCi-2 (fluconazole-resistant clinical isolate) + fluconazole, Alamar Blue growth, 48 h. growth inhibition, % (no concentration beside the values). hit rate 0.57% among 300,000;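 active means most replicates above 75%; inconclusive means exactly half above 75%; inactive means most below 75%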;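 further: all wells also contain fluconazole at 8 µg/ml as a sub-toxic cotreatment; 0% = median of DMSO wells and 100% = median of geldanamycin control wells; wells of about 8 µL received 7.5 nL stock; the first replicate is given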
MLL AF4-AF9 inh: MLL-AF4/AF9 protein interaction inhibition | hit rate 0.47% among 350,000 | inhibition, % at 10 µM | AID 651704 | AlphaScreen, biotin-AF4 peptide binding to FLAG-AF9;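 active means every replicate reaching a set inhibition limit, whatever the replicate mean, cut at about 25% in these data; inconclusive means mean inhibition reaches that limit but some replicates miss it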;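 further: 0% = plate neutral control median and 100% = total signal loss; the record names both 10 and 1 µM as test concentration; the first replicate is given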
T cruzi repl: T. cruzi replication inhibition; hit rate 1.4% among 300,000; T. cruzi beta-gal in NIH3T3, luminescence, 90 h; inhibition, % (concentration not given with the values);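 active means mean inhibition across valid replicates above about 55%, limit read from the data; inconclusive means mean below that limit but half or more replicates reach it; inactive means mean below it, under half of replicates reach it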;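 further: signal also drops with host cell toxicity which is not excluded here; 0% = plate median of DMSO wells and 100% = zero luminescence signal; higher percent means less beta-gal luminescence so fewer parasites; stock transfer was 50 nL into about 50 µL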
Vif A3G: inhibitors of Vif binding to APOBEC3G peptide, primary screen, biochemical, TR-FRET, GST-Vif 1-94, biotin-A3G peptide, dose response retest (AID 1117319); hit rate 0.57% among 260,000; TR-FRET GST-Vif / biotin-A3G peptide binding; higher % means a stronger effect; test concentration not given here; strong numbers were not always called active; inhibition, %, or IC50 in µM where a hit was titrated;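 active means above the screen mean plus three standard deviations and confirmed in dose response; inconclusive means results disagree or hit not tested in dose response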;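 further: Vif residues 1-94 fused to GST binding biotinylated APOBEC3G peptide 110-148; 0% = full assay without inhibitor and 100% = GST in place of GST-Vif; retest series ran down from 100 µM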
RanGTP-Impb inh: disruptors of Ran-importin-beta complex formation – biochemical, FRET, CFP-Ran, YFP-importin-beta, homogeneous, primary screen. cell-free CFP-Ran/YFP-importin-beta FRET ratio. inhibition, % (concentration not given with the values). hit rate 1.1% among 300,000. AID 2216;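 active means most replicates above 15%; inconclusive means exactly half above 15%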;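 further: 0% = DMSO wells and 100% = Ran loaded with GDP instead of GTP; wells of about 40 µL received 100 nL stock; the first replicate is given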
Beta apoptosis: beta cell apoptosis inhibition. hit rate 0.8% among 300,000. protection from apoptosis, % (concentration not given with the values). INS-1E cytokine-induced death, ATP luminescence, 48 h; percent of positive-control rescue, neutral wells zero;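 active means all replicates at 75% or more, or half of them and the mean; inconclusive means half reach 75% but not the mean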;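 further: 0% = cytokine-treated negative control wells and 100% = positive control rescue; higher means more ATP so stronger rescue from cytokine killing; wells of about 40 µL received 100 nL stock; the first replicate is given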
LANA-H2B inh: blocks KSHV LANA binding to histone H2A/H2B; hit rate 0.6% among 320,000; AID 2629; Q9QR71; inhibition, % (concentration not given with the values); cell-free LANA-H2A/H2B peptide, fluorescence polarization; in the data active means inhibition mostly above about 10%, no sharp cut-off; inactive means mostly below about 6.7%;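 further: stock transfer was 7.5 nL into about 10 µL; 0% = median of vehicle wells and 100% = median of positive control wells; one replicate is shown; the record names a cut of 25% in any replicate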
Target sequence (Q9QR71 whole entry, looked up): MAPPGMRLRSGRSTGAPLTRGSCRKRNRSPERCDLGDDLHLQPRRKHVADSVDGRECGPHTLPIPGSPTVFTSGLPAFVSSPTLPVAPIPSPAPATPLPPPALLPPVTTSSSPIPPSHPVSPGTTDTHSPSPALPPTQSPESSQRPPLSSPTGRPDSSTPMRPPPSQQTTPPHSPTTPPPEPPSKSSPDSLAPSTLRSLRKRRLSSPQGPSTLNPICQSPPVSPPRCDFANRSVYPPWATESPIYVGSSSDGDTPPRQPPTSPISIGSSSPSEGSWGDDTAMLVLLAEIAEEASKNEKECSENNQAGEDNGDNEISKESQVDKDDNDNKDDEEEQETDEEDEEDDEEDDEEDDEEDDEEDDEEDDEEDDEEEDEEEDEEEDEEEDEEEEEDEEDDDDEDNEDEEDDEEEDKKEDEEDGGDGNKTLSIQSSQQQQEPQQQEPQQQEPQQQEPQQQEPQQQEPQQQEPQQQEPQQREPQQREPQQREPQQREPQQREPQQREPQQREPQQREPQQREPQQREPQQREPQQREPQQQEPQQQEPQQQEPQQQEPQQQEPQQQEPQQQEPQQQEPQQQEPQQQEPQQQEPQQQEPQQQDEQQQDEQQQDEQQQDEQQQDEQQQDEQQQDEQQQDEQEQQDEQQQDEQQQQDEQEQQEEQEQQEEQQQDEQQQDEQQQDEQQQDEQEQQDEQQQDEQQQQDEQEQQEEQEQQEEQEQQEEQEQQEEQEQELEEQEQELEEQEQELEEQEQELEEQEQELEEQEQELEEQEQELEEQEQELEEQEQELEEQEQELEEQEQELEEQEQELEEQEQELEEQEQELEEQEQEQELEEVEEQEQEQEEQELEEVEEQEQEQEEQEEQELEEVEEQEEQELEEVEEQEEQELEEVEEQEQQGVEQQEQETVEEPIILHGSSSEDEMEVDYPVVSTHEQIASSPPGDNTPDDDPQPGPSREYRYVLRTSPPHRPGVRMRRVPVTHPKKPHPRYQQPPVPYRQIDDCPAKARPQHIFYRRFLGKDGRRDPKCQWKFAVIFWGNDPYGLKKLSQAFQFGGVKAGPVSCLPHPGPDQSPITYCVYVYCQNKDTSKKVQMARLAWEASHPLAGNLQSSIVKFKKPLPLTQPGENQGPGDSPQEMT
Bfl-1 A1 inh: inhibitors of the anti-apoptotic protein A1, read as caspase activation. MEF A1-2A-BIM cells, Caspase-Glo 3/7 luminescence, 3 h; percent of clofoctol response, vehicle zero. caspase activation, % (test concentration not listed). hit rate 0.066% among 330,000;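 active means over half of replicate activation scores above 10%, or exactly half above 10 with the replicate mean above 10; inconclusive means replicate mean below 10 yet half the replicates above 10; inactive means over half of replicates below 10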;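 further: wells of about 30 µL received 50 nL stock; many hits fall short of the cut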
* = called active by the depositor; ? = inconclusive; . = not tested or not shown; & = joins results of further samples.

SMILES	Calb FLC	MLL AF4-AF9 inh	T cruzi repl	Vif A3G	RanGTP-Impb inh	Beta apoptosis	LANA-H2B inh	Bfl-1 A1 inh
COc1ccc(CCN2CC(C(=O)N3CCC(OC)CC3)CCC2=O)cc1 (stereo not drawn)	-1	0.3	?	-3%	-2.8	.	-55	0.6
Cc1ccc(C(=O)NCCNS(=O)(=O)c2ccccc2)cc1	5	.	4	-3%	-2.3	5	4.2	0.2
COc1cc(OC)cc(N(C(=O)CNC(=O)c2ccco2)C(C(=O)NCC2CCCO2)c2ccccc2)c1 (stereo not drawn)	3	0.8	10	.	0.6	.	-3.5	0.0
OCC[C@@H]1C[C@@H](O)[C@H](O)[C@@]2(CCc3ccccc3O2)O1	-2	2.9	13	.	?	0	8.3	0.2
CC(C)C[C@@H](CO)NC(=O)CC[C@H](NC(=O)OC(C)(C)C)C(=O)N(Cc1ccccc1)Cc1ccccc1	24	-34	-2	.	6.3	.	-1.4	-1.1
NC(=O)c1cccnc1Nc1ccccc1Cl	16	0.5	-40	-1%	?	-7	-1.8	-0.5
CC(C)(C)OC(=O)N1CCCC1C(=O)N1CCCC1C(=O)N1CCCC1C(=O)O (stereo not drawn)	3	.	-5	12%	3.0	.	.	.
COCc1cc(C)nc(N/N=C/c2ccc(-c3ccc(Cl)cc3[N+](=O)[O-])o2)c1C#N	-3	.	35	15%	-6.6	.	.	.
C/C(=N\NC(=O)c1c(Br)c(C)nn1C)c1cccc(NC(=O)c2ccccc2C)c1	-2	8.0	-1	14%	2.9	-2	-2.0	0.0
CSc1n[nH]c(=S)n1N	7	-0.2	-10	15%	0.2	1	-2.3	1.7
COCCn1c(CNc2ccc(F)cc2)nnc1SCC(=O)Nc1ccc(OC)cc1OC	-19	.	8	4%&-2%	1.1	-4	0.4	0.1
CC(C)c1ccc(C2NC(=O)NC3=C2CCc2ccccc23)cc1 (stereo not drawn)	29	.	-20	15%	2.8	-3	-4.0	-1.1
O=C(CCCn1c(=O)[nH]c2ccsc2c1=O)Nc1ccc(F)cc1	0	-11	-2	2%	-3.8	-2	2.0	0.1
O=C(NCCc1ccccc1)c1ccc(=O)[nH]c1	-1	.	7	6%	-2.0	-4	14	-0.5
CCOc1ccccc1C(=O)NCCNC(=O)c1ccccc1OCC	-13	4.9	0	.	-0.9	4	-0.1	0.8
Cc1ccc(C2C(C#N)=C(N)Oc3c2c(=O)n(C)c(=O)n3C)cc1 (stereo not drawn)	-4	.	-3	-1%	2.7	-3	-1.1	0.0
O=C(/C=C/NNC(=O)c1cccc(Br)c1)c1ccccc1	4	.	-4	6%	-0.4	-1	7.0	-0.2
CCn1cc(C(=O)Nc2ncccc2O)c(=O)c2cc(F)c(N3CCN(C(=O)c4ccco4)CC3)cc21	-1	-2.6	-10	.	1.4	4	-3.9	0.2
CN(CC(=O)Nc1ccc(N2CCOCC2)cc1)C(=O)COc1ccccc1F	-7	2.1	5	0%	-0.4	-3	-3.9	0.9
O=C(Nc1ccc(Cl)cc1)N1CCCN(c2ccc(C(F)(F)F)cc2[N+](=O)[O-])CC1	1	-3.1	21	0%	-1.9	-3	0.5	0.3
O=C(NCc1ccco1)c1cnn2c(C(F)(F)F)cc(-c3ccccc3)nc12	11	-7.9	29	11%	7.1	0	-3.0	-0.2
O=C1Nc2ccccc2/C1=N\N=C\C1=C(N2CCOCC2)C(=C\c2ccccc2)/CC1	-9	.	49	22%	-11	17	-1.0	-0.8
COc1ccc(NC(=S)NNC(=O)COc2ccc(Cl)cc2Cl)cc1	21	.	-9	.	4.5	5	-2.9	0.1
Cc1cccc(NC(=O)CCc2ccccc2)c1	-24	0.1	3	6%	-5.1	-1	-0.1	-0.3
Cc1ccc(/C=C/C2=NN(Cc3ccc(Cl)c(Cl)c3)C(=O)CC2)cc1	-11	.	0	-4%	1.0	-8	-0.1	-0.5
Cc1ccc(OCC(=O)NC2CC(C)(C)NC(C)(C)C2)c(C)c1	1	-0.5	7	2%	-1.5	-10	-6.8	0.1
O=S(=O)(c1ccc2oc(=S)[nH]c2c1)N1CCOCC1	.	-0.7	.	-16%	.	-1	1.0	1.4
CCC(=O)Nc1ccc(NC(=O)c2cccc3ccccc23)cc1	-18	-7.6	-6	-4%	3.6	-11	-1.3	-0.8
O=C(NCCNC(=O)c1ccc(Br)o1)c1ccc(Br)o1	7	.	0	-4%	-1.8	0	-1.8	0.8
COc1ccc2[nH]c(C(=O)N(Cc3ccccn3)Cc3ccccn3)cc2c1	2	-3.2	-3	-4%	-1.4	-4	5.0	0.1

13 entries from above, with bars between the fields:
SMILES | Calb FLC | MLL AF4-AF9 inh | T cruzi repl | Vif A3G | RanGTP-Impb inh | Beta apoptosis | LANA-H2B inh | Bfl-1 A1 inh
CCOc1ccccc1C(=O)NCCNC(=O)c1ccccc1OCC | -13 | 4.9 | 0 | . | -0.9 | 4 | -0.1 | 0.8
Cc1ccc(C2C(C#N)=C(N)Oc3c2c(=O)n(C)c(=O)n3C)cc1 (stereo not drawn) | -4 | . | -3 | -1% | 2.7 | -3 | -1.1 | 0.0
O=C(/C=C/NNC(=O)c1cccc(Br)c1)c1ccccc1 | 4 | . | -4 | 6% | -0.4 | -1 | 7.0 | -0.2
CCn1cc(C(=O)Nc2ncccc2O)c(=O)c2cc(F)c(N3CCN(C(=O)c4ccco4)CC3)cc21 | -1 | -2.6 | -10 | . | 1.4 | 4 | -3.9 | 0.2
CN(CC(=O)Nc1ccc(N2CCOCC2)cc1)C(=O)COc1ccccc1F | -7 | 2.1 | 5 | 0% | -0.4 | -3 | -3.9 | 0.9
O=C(Nc1ccc(Cl)cc1)N1CCCN(c2ccc(C(F)(F)F)cc2[N+](=O)[O-])CC1 | 1 | -3.1 | 21 | 0% | -1.9 | -3 | 0.5 | 0.3
O=C(NCc1ccco1)c1cnn2c(C(F)(F)F)cc(-c3ccccc3)nc12 | 11 | -7.9 | 29 | 11% | 7.1 | 0 | -3.0 | -0.2
O=C1Nc2ccccc2/C1=N\N=C\C1=C(N2CCOCC2)C(=C\c2ccccc2)/CC1 | -9 | . | 49 | 22% | -11 | 17 | -1.0 | -0.8
COc1ccc(NC(=S)NNC(=O)COc2ccc(Cl)cc2Cl)cc1 | 21 | . | -9 | . | 4.5 | 5 | -2.9 | 0.1
Cc1cccc(NC(=O)CCc2ccccc2)c1 | -24 | 0.1 | 3 | 6% | -5.1 | -1 | -0.1 | -0.3
Cc1ccc(/C=C/C2=NN(Cc3ccc(Cl)c(Cl)c3)C(=O)CC2)cc1 | -11 | . | 0 | -4% | 1.0 | -8 | -0.1 | -0.5
Cc1ccc(OCC(=O)NC2CC(C)(C)NC(C)(C)C2)c(C)c1 | 1 | -0.5 | 7 | 2% | -1.5 | -10 | -6.8 | 0.1
O=S(=O)(c1ccc2oc(=S)[nH]c2c1)N1CCOCC1 | . | -0.7 | . | -16% | . | -1 | 1.0 | 1.4

Remaining list, next part:
SMILES	Calb FLC	MLL AF4-AF9 inh	T cruzi repl	Vif A3G	RanGTP-Impb inh	Beta apoptosis	LANA-H2B inh	Bfl-1 A1 inh
C=CCNC(=O)NC(=O)COn1nnc2ccc(S(=O)(=O)N(C)C)cc21	11	.	-13	-8%	-0.6	-3	2.9	-0.6
COC(=O)c1oc2ccc(Br)cc2c1NC(C)=O	8	-1.7	-2	7%	0.8	0	4.7	1.0
Cc1cnc(C(=O)OCC(=O)N2C(C)CCCC2C)cn1 (stereo not drawn)	.	-2.9	.	.	.	-3	-4.5	0.9
O=C(/C=C/c1ccc(OCc2ccccc2)c(OCc2ccccc2)c1)c1cccnc1	6	.	52	-9%	-7.3	53	-7.4	0.1
CCc1c(C(=O)NNC(=S)NCCc2ccccc2)csc1C	-2	.	-8	-4%	-2.5	7	-1.1	0.1
COc1ccc(NC(=O)COC(=O)CCc2nc3ccccc3c(=O)[nH]2)c(OC)c1	.	0.6	.	2%	.	-11	-6.4	0.9
COc1cccc(CC(=O)Nc2ccc(S(=O)(=O)N3CCCCC3)cc2)c1	.	-2.2	.	-2%	.	1	5.5	0.2
CC1(C)CC(=O)c2sc(NC(=O)Cc3cccs3)nc2C1	-35	.	2	6%	0.0	-2	0.7	0.1
CCc1nc(Nc2cccc(F)c2)c2oc3ccccc3c2n1	1	-1.5	5	-4%	-0.5	7	1.5	0.2
CC(C)(C)C(=O)O/N=C(\N)c1c(Cl)cccc1Cl	9	1.1	-16	100%	-0.5	-1	-2.3	0.3
COC(=O)c1ccc(C(=O)Nc2ccc(C(C)C)cc2N)cc1	-10	-3.2	48	-10%	-1.5	0	-1.0	-0.4
COc1cc(C2NC(=O)NC(O)(C(F)(F)F)C2C(=O)c2cccs2)ccc1O (stereo not drawn)	0	-2.3	-4	-5%	-1.9	-2	-2.4	0.6
CCC1CC(/C(C)=N/NC(N)=O)OC1=O (stereo not drawn)	1	-2.1	3	6%	?	-32	6.2	-0.4
CC(=O)Nc1ccc(C2=CC(=O)C[C@H](c3ccc4c(c3)OCO4)C2)cc1	.	0.9	.	.	.	91*	-0.7	-0.2
COc1ccc(OC)c(NC(=O)COc2ccc(S(=O)(=O)N3CCCC3)cc2)c1	6	2.9	11	.	-2.6	6	1.9	0.6
O=C(NCCc1ccc(Cl)cc1)c1cccs1	-9	7.0	-8	.	-2.5	-1	-4.1	-1.2
CCn1cc(C(=O)NCCCN2CCC(C)CC2)c(=O)c2cc(S(=O)(=O)N3CCCC3)ccc21	-2	.	5	11%&-3%	4.1	-7	-6.7	0.1
Cc1[nH]c2ccc(C(=O)N3CCCCC3)cc2c1C	1	3.5	1	-4%	-3.8	-7	0.9	-2.2
CC(C)c1ccc(N=C(N)N=C(N)N)cc1	-19	-1.2	-1	-9%	3.6	1	-1.2	0.5
COc1ccc(C(=O)c2ccc3oc(-c4ccc(OC)cc4)c(-c4ccc(O)cc4)c3c2)cc1	.	-2.3	.	.	.	22	1.1	2.0
Cc1ccc(NC(=O)c2cnc(SCC(=O)NCC3CCCO3)n(C)c2=O)cc1 (stereo not drawn)	-1	?	-7	-4%	0.0	-2	-0.3	-7.0
COc1ccccc1NC(=O)C1=C(C)Nc2nc(-c3ccc(N(C)C)cc3)nn2C1c1ccncc1 (stereo not drawn)	.	.	.	2%	.	12	6.5	1.1
O=C1C2CC=C(Cl)CC2C(=O)N1CCC[n+]1ccccc1 (stereo not drawn)	26	.	-9	-4%	7.2	-3	5.1	-0.3
Cc1ccc(C)c(S(=O)(=O)N2CCN(CC(=O)NC(=O)NCc3ccccc3)CC2)c1	12	.	56*	2%	-5.6	-3	-0.7	-0.7
COc1ccccc1C(=O)NCCOc1ccc(C)c(C)c1	-18	-1.6	-3	.	-4.6	-7	1.8	0.7
O=C(NCCN1CCOCC1)c1cc(-c2ccc(F)cc2)on1	7	.	-1	-2%	-0.5	12	182*	-0.9
CC1CN(C(=O)COC(=O)c2ccc(NC(=O)CC#N)cc2)CC(C)O1 (stereo not drawn)	-10	-0.8	-5	-7%	0.6	4	7.7	0.9

The order is random, and some 4.3% of all compounds hit somewhere here.
